# ClpP mod: qHTS Assay for Activators of ClpP; purified B. subtilis ClpP, FRET peptide cleavage, 20 min; Potency, µM (titrated, usually from 57.5 µM), without a hit: top-dose activity change, negative = active; 340,000 tested, 1.9% active; active = well fitted falling curve with a large enough effect; inconclusive = small, poorly fitted or top-dose-only effect; inactive = no such curve, though single readings can be large or run the other way; note: potency is the fitted concentration of half-maximal effect; the source files actives as falling curves though it sought activators and does not explain the sign; nearly all actives have a fitted effect of over 65% in size; many hits overshoot -100%
# Target sequence (P80244 whole entry, looked up): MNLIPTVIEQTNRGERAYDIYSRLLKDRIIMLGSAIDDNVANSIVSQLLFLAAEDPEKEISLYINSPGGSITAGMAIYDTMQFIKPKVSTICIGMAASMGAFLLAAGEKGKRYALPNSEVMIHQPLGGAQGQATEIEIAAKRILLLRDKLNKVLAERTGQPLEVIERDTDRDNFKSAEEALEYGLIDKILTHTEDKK
#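 Buffer: 100 mM Tris/HCl pH8, 100 mM KCl, 0.05% low protease BSA, 2.5% glycerol, 0.01% Tween-20. ClpP 10 microg/mL final; 20 min RT; delta FRET normalized to ADEP and DMSO controls.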
# Menin MLL FP FL: inhibitors of human menin-MLL interaction, wild-type MLL peptide; FP activity change, % at 61.4 µM; 290,000 tested, under 10 active; Fluorescence polarization, fluorescein-MLL peptide displacement from menin; AID 1766; inconclusive = falling polarisation curve, or a change in total fluorescence; inactive = total fluorescence flat and polarisation flat or rising; no compound was filed as active; the % refers to the polarisation; negative = inhibition;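 note: % of control where 0% means no effect; inhibitors lower the polarisation; unlabelled MLL peptide was the positive control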
# gsp ag: agonists of gsp mutant (McCune-Albright syndrome). gsp mutant cells, cAMP HTRF, 30 min; control for the full effect not named in the record. Potency, µM (titrated, usually from 76.9 µM), inactives show at the top dose activation (cAMP increase), hits mostly activators. 340,000 tested, 0.13% active; active = well fitted activation curve with a large enough effect; inconclusive = small, poorly fitted or top-dose-only effect, or another doubt; inactive = no such curve, though single readings can be large or run the other way; cell line not stated here;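 note: phosphodiesterase inhibitor Ro 20-1724 added with compounds to block cAMP breakdown; potency is the fitted concentration of half-maximal effect; nearly all actives have a fitted effect of over 60% in size; about a fifth of the inactives were tested at one dose only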
#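 Cells in DMEM/10% FBS with G418 were pretreated with compounds in DMSO plus […] (300 uM stock) for 30 min at 37C. cAMP was measured by HTRF (cAMP-d2 plus anti-cAMP antibody-K) after 30 min at room temperature.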
# Sfp PPTase inh: blocks B. subtilis Sfp PPTase activity. Biochemical Sfp PPTase activity, qHTS. 310,000 tested, 3.5% active. AID 1490. Potency, µM, without a hit: max response, negative = inhibition, usual class: inhibitors; active = well fitted inhibition curve with a large enough effect; inconclusive = small, poorly fitted or top-dose-only effect, or another doubt; inactive = no such curve, though single readings can be large or run the other way;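 note: the enzyme is Sfp with the accession as filed and its product quenches rhodamine fluorescence; potency is the fitted concentration of half-maximal effect; 0% = enzyme reaction without inhibitor and -100% = no enzyme wells; top concentration of the series not given in the record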
#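 Sfp 15 nM + cpd, 15 min RT; start w/ rhodamine-CoA 5 uM, BHQ-2-YbbR 12.5 uM (final); 50 mM Hepes pH 7.6, 10 mM MgCl2, 0.01% NP-40, 0.01% BSA; read 525/598 nm at 0 and 30 min.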
# TRPV1 PAM: potentiators of human vanilloid receptor 1 (TRPV1). Q8NER1. TRPV1-expressing cells, Fluo-8 calcium influx, capsaicin EC20 potentiation; host cell line not named in the record; control for the full effect not named in the record. potentiation, % at 8.33 µM. 320,000 tested, 0.02% active. AID 540277; active means potentiation above 80%; inconclusive means 30% to 80%; inactive means below 30%; note: 0% is about no effect
# Target sequence (Q8NER1 whole entry, looked up): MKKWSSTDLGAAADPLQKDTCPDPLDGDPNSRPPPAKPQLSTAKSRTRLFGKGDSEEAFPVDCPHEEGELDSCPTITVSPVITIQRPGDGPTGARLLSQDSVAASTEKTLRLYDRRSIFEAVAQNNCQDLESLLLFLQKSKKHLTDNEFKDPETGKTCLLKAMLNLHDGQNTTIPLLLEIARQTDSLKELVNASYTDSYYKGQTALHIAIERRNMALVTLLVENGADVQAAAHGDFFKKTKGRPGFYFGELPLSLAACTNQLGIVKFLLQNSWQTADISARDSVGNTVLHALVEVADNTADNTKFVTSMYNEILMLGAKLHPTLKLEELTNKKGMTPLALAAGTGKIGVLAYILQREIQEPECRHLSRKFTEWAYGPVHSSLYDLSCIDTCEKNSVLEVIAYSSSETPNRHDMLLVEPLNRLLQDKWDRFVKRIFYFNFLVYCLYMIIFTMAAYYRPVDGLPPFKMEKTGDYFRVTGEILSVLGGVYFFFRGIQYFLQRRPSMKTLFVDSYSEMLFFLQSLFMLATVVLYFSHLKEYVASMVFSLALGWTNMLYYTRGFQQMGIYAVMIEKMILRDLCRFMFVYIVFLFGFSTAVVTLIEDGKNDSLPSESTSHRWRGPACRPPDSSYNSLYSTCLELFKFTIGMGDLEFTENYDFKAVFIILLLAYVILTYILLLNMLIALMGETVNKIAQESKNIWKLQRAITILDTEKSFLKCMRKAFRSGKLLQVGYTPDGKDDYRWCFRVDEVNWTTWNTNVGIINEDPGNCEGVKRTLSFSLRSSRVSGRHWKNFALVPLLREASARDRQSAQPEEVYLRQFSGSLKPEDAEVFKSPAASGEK
#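 TRPV1-expressing cells were cultured overnight at 35.5C and loaded with Fluo-8 calcium dye for 40 to 90 min at room temperature. After a 10 s baseline, compound was added and calcium influx was read kinetically for 3 min (ex 480/em 520 nm).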
# TRPML1 blocker: inhibitors of human TRPML1 channel | Q9GZU1 | TRPML1-inducible cells, Ca2+ dye fluorescence, FDSS; hits give low values; inhibition of EC80 agonist-evoked calcium signal | activity change, negative = inhibition, % (concentration not given with the values) | 390,000 tested, 0.02% active | AID 624415; in the data active means activity change below about -50%; inconclusive means about -30% to -50%; inactive means above about -30%;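 note: stimulus is agonist 54-4 at its EC80 concentration; % is set by controls: 0 for no effect and ±100 for the full control effect; compound concentration not given in the record; the text of the record puts the active cut at -80%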
#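 Tet-induced TRPML1-DL cells loaded with Ca8 no-wash calcium dye were read kinetically on FDSS. Compound addition was followed by EC80 agonist 54-4 (4 uM final); inhibition was read over 110 s.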
# gsp antag: antagonists of gsp mutant (McCune-Albright syndrome) | gsp-mutant cells, cAMP HTRF, 30 min; control for the full effect not named in the record | AID 624288 | Potency, µM (doses to about 76.9 µM), for inactives: at the top dose activity change, negative = inhibition, usual class: inhibitors | 340,000 tested, 0.4% active; active = falling curve of any shape with a large fitted effect; inconclusive = falling curve, mostly with a smaller effect; inactive = flat or rising curve; cell line not stated here;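 note: intracellular cAMP measured with PDE inhibitor Ro 20-1724 present during compound exposure; potency is the fitted concentration of half-maximal effect; % is set by controls: 0 for no effect and ±100 for the full control effect; nearly all actives have a fitted effect of over 65% in size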
#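 HTRF cAMP measurement after 30 min RT detection following 30 min, 37C compound treatment alongside […] (added as 300 uM solution) in G418-selected cells seeded at 2000/well and grown 16–24 h.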
# * = called active by the depositor; ? = inconclusive; . = no result given; & = joins results of further samples; [ ] = another dose, or the depositor's remark.
Molecule	ClpP mod	Menin MLL FP FL	gsp ag	Sfp PPTase inh	TRPV1 PAM	TRPML1 blocker	gsp antag
O=C(Nc1ncnc2sc3c(c12)CCCC3)c1ccncc1	.	-0.3	-4%[15.4 µM]	13%	6	-1	7%
Cc1cc(C)cc(OCC(=O)NNC(=O)CN2C(=O)c3ccccc3C2=O)c1	-1.5%	0.4	0%	10%	-9	1	-8%
CCN1CCN(c2cc(=O)n(Cc3ccc(F)cc3)c(=O)[nH]2)CC1	0.9%	1.8	9%	6%	?	6	-4%
CCOC(=O)c1cc2c(n(-c3ccc(Cl)cc3)c1=O)CCCC2=O	.	-2.5	0%[15.4 µM]	6%	9	-14	-2%
CC(C)(C)C(=O)Cn1c(=N)n(Cc2ccccc2Cl)c2ccccc21	-1.7%	1.6	-24%	13%	-2	11	?
NC(N)=N/N=C/c1ccc(Br)cc1	0.5%	1.3	-1%	5%	-2	15	4%
Cc1cccc(NC(=O)Cn2cc([N+](=O)[O-])cn2)n1	0.2%	-0.8	44%	13%	0	-2	4%
Cc1ccc(SCCNC(=O)c2ccc(C)c(S(=O)(=O)Nc3cccc(C)c3)c2)cc1	1.1%	0.5	0%	14%	22	-7	-17%
C/C(Cl)=C/CSc1nnc2n(N)c(=O)c3ccccc3n12	-1.1%	-4.0	-41%[inhibitor]	11%	1	-11	7%
CC1CN(C(=S)NC(=O)c2ccccc2)CC(C)O1 (stereo not drawn)	1.4%	.	-12%	-25%	-1	20	14%
CS(=O)(=O)N1CCc2cc(S(=O)(=O)N3CCN(Cc4ccc5c(c4)OCO5)CC3)ccc21	0.1%	3.3	-34%	16%	-9	-8	-21%
CCN(C(=O)CSc1cccc[n+]1[O-])c1ccccc1	-11%	.	-9%	.	.	-8	7%
CC(C)C[C@H](NC(=O)N1CC(=O)Nc2ccccc21)C(=O)N[C@H](Cc1ccccc1)C(=O)O	-1.7%	1.9	.	13%	10	.	7%
CC(C)COP(=O)(c1ccc(N(C)C)cc1)C(O)c1cccnc1 (stereo not drawn)	-3.2%	1.4	-3%	9%	6	-4	-3%
CCCc1nc2sc3c(=O)n(N)cnc3c2c2c1CCCC2	-1.0%	3.2	9%	17%	-4	5	-3%
CCc1cc2cc3c(cc2nc1SCC(=O)Nc1nccs1)OCO3	-3.0%	2.7	?	?	13	-4	25%
Cc1ccc(CC(=O)N2CCOCC2)cc1	-4.0%	0.6	-4%	9%	0	-4	11%
Cn1c(=O)c2c(-c3cccc(Br)c3)c(C#N)c(N)nc2n(C)c1=O	.	5.9	18%[15.4 µM]	19%	-2	-29	4%
C[C@H](NC(=O)c1nc[nH]c1C(=O)NCCCCCNC(=O)OC(C)(C)C)c1ccccc1	0.7%	.	.	.	-4	0	-13%
COc1ccc(NC(=O)c2ccc(C)cc2Cl)c([N+](=O)[O-])c1	0.0%	4.3	-27%	8%	1	-1	2%
Cc1ccc(C(=O)Nc2ncc3c(n2)CC(c2ccco2)CC3=O)cc1 (stereo not drawn)	-4.8%	4.6	4%	-15%	-13	1	14%
Cc1sc2nc(CN3CCCC3)nc(N3CCN(S(=O)(=O)c4ccccc4)CC3)c2c1C	-13%	.	4%	.	-10	-21	-18%
CCOC(=O)c1ccccc1NC(=O)CSc1nccn1C	-1.9%	-1.7	17%	9%	-5	-6	-1%
O=C(Cn1cnc2ccccc21)Nc1ccc(C(=O)O)cc1	-2.9%	-1.1	-4%	10%	2	-2	5%
Cn1c2ccccc2c2nnc(SCC(=O)NC3CCCC3)nc21	.	-6.4	18%[15.4 µM]	9%	-1	8	10%

# Arranged by molar mass (falling): some entries from above.
Molecule	ClpP mod	Menin MLL FP FL	gsp ag	Sfp PPTase inh	TRPV1 PAM	TRPML1 blocker	gsp antag
Cc1sc2nc(CN3CCCC3)nc(N3CCN(S(=O)(=O)c4ccccc4)CC3)c2c1C	-13%	.	4%	.	-10	-21	-18%
Cc1ccc(SCCNC(=O)c2ccc(C)c(S(=O)(=O)Nc3cccc(C)c3)c2)cc1	1.1%	0.5	0%	14%	22	-7	-17%
CC(C)C[C@H](NC(=O)N1CC(=O)Nc2ccccc21)C(=O)N[C@H](Cc1ccccc1)C(=O)O	-1.7%	1.9	.	13%	10	.	7%
CC1CN(C(=S)NC(=O)c2ccccc2)CC(C)O1 (stereo not drawn)	1.4%	.	-12%	-25%	-1	20	14%
NC(N)=N/N=C/c1ccc(Br)cc1	0.5%	1.3	-1%	5%	-2	15	4%

# The results go on:
Molecule	ClpP mod	Menin MLL FP FL	gsp ag	Sfp PPTase inh	TRPV1 PAM	TRPML1 blocker	gsp antag
Cc1c(OCC(F)(F)F)ccnc1CSc1nc2ccccc2[nH]1	-0.5%	-2.5	0%	13%	3	18	15%
Cc1ccc(-c2nc(CSCC(=O)NCC3CCCO3)c(C)o2)cc1 (stereo not drawn)	-8.8%	-2.9	-32%[inhibitor]	9%	-14	35	-6%
CC(=O)N1CCN(c2ccc(S(=O)(=O)NCCN(C(C)C)C(C)C)cc2[N+](=O)[O-])CC1	1.2%	1.2	?	-3%	6	-5	-4%
CCCC(=O)Nc1ccc2c(c1)COC2=O	-0.5%	-3.4	23%[15.4 µM]	0%	5	-16	-1%
C[C@H](NC(=O)c1ccccc1Cl)C(=O)OCCOc1cccc(Cl)c1	-0.3%	-1.5	-27%	5%	-2	-2	-5%
CNc1ccc([N+](=O)[O-])cc1-c1nc2ccccc2[nH]c1=O	.	1.5	?	2%	2	-17	2%
O=S(=O)(NCc1ccc(Cl)cc1)c1ccc(Cl)nc1	0.4%	3.9	-56%[inhibitor]	18%	2	-5	-5%
COc1ccccc1N(CC(=O)Nc1ccccc1C(=O)NC(C)C)S(C)(=O)=O	0.2%	2.4	14%	11%	-1	-2	-1%
COc1cccc(C(=O)OCC(=O)Nc2cc(C)c(C)cc2[N+](=O)[O-])c1	.	3.4	-1%[15.4 µM]	-11%	4	-15	7%
CP(C)(=O)CCP(=O)(c1ccccc1)c1ccccc1	5.9%	7.0	-3%[15.4 µM]	38%[activator]	3	9	15%
O=C(CSc1ncnc2ccccc12)NCc1ccco1	-4.1%	3.9	?	1%	-1	1	4%
COc1cccc(NC(=O)C(=O)N2CCOCC2)c1	-1.2%	-5.2	-14%	6%	-13	-13	12%
O=C(Cc1ccc(S(=O)(=O)N2CCOCC2)s1)N1CCN(S(=O)(=O)c2cccc([N+](=O)[O-])c2)CC1	-2.3%	.	2%[15.4 µM]	.	?	-4	-7%
COc1ccc(S(=O)(=O)N2CCc3ccccc32)cc1[N+](=O)[O-]	-1.4%	-3.5	?	-4%	23	19	-5%
Cc1cc(Nc2ccccc2F)n2ncnc2n1	-2.1%	2.6	-1%	11%	7	0	-6%
O=C(Nc1ccc(Cl)cc1-c1nc2ccccc2s1)c1ccco1	-28%	7.9	?	?	-1	-9	11%
COc1ccc(-c2oc(/N=C/N3CCCC3)c(C#N)c2-c2ccc(OC)cc2)cc1	-3.1%	0.7	22%	13%	0	7	-13%
NC(=O)C1(c2ccccc2)CCC(=O)N1c1ccccc1 (stereo not drawn)	.	-0.7	4%[15.4 µM]	14%	.	-18	-5%
Cc1onc(-c2c(Cl)cccc2Cl)c1C(=O)N1CCc2ccccc21	-2.3%	5.2	-43%[inhibitor]	-4%	-15	47	?
c1ccc(-c2nc(C3CCCCC3)c3ccccc3n2)cc1	0.5%	.	16%	.	-10	-6	2%
Cc1ccc(S(=O)(=O)N(CC(=O)Nc2ccc(Cl)c([N+](=O)[O-])c2)C2CCCCC2)cc1	28µM*	1.8	-7%	12%	-8	21	-6%
O=C(O)c1ccc2c(=O)n3c(nc2c1)/C(=C/c1cccc(Cl)c1Cl)CCCC3	0.7%	1.8	3%	9%	3	5	?
CCc1ccc(OCCNC(=O)c2ccco2)cc1	-0.4%	1.4	21%	1%	-21	24	0%
COc1ccc2c(=O)c(-c3ccccc3)coc2c1	-0.1%	?	-24%	8%&20%	21	4	-8%
COc1ccc(CN(C)C(=O)CNC(=O)CNC(=O)c2ccc(Cl)cc2Cl)cc1F	.	-2.8	6%	12%	8	-16	5%
O=C1NC(=Nc2cccc(Cl)c2)SC1Cc1cccc(Cl)c1Cl (stereo not drawn)	-0.9%	-0.3	0%	7%	7	-6	-9%
N#CC[C@H](c1ccccc1)N1CCN(Cc2ccccc2)CCC1=O	-3.4%	0.6	10%	17%	1	25	8%
COc1cc2ccccc2cc1C(=O)NC(=S)Nc1nnn(C)n1	1.4%	-1.0	5%	21%	9	-7	4%
COc1ccc(CNC(=O)c2ccc(Cl)c(S(=O)(=O)N3CCCCCC3)c2)cc1	-0.5%	.	-58%[inhibitor]	.	.	30	.
O=C(CSc1nnc(-c2ccncc2)n1-c1ccc(Cl)cc1)Nc1ccc(C(=O)O)cc1	.	-0.5	-2%[15.4 µM]	36%[activator]	-7	2	.
COc1ccc(OCC(=O)Nc2ccc(S(=O)(=O)N3CCN(C)CC3)cc2)cc1	.	-1.7	-8%[15.4 µM]	-1%	0	-7	13%
Cc1ccc(N(C(=O)c2csnn2)C(C(=O)NC2CCCC2)c2ccccn2)cc1 (stereo not drawn)	.	-6.0	-10%[15.4 µM]	4%	-4	27	18%
CC1CCCN(C(=O)Cn2cnc3c2c(=O)n(C)c(=O)n3C)C1 (stereo not drawn)	-0.3%	3.4	2%	-8%	-2	36	8%
CCN(CC(=O)Nc1ccccc1OC)C(=O)CSCc1c(C)noc1C	-1.5%	.	16%[15.4 µM]	1%	6	-10	9%
COc1ccc(NC(=S)N(CCCN2CCCCC2)Cc2cccs2)cc1	2.3%	2.7	-8%[15.4 µM]	14%	10	11	-9%

# High-throughput results: PubChem, National Center for Advancing Translational Sciences (NCATS)
